Cruzain noTriton: blocks cruzain activity in detergent-free assay. Potency, µM, for inactives: max response, negative = inhibition, most hits filed as inhibitors. AID 1476. P25779. 200,000 tested, 2.3% active. purified cruzain, Z-FR-AMC fluorescence, no detergent;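 also: plate controls were enzyme without inhibitor for no effect and buffer without enzyme for full effect; nearly all actives have a fitted effect of over 40% in size; top concentration of the series not given in the record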
Target sequence (P25779 123-467 limits assumed): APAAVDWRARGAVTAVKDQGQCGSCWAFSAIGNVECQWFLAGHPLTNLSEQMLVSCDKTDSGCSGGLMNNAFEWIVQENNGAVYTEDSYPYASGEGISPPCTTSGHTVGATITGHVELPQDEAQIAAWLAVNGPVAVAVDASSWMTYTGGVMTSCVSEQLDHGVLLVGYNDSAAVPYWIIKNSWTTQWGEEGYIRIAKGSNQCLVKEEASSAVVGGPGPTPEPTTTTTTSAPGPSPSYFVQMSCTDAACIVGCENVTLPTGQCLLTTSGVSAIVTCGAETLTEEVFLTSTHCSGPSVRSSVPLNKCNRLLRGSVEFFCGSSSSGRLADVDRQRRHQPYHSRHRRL
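Purified cruzain at 1.5 nM, pre-incubated 15 min with compound at room temperature in 100 mM sodium acetate pH 5.5, 5 mM DTT, 0.00005% Triton X-100. Reaction started with 2 uM Z-FR-AMC; AMC fluorescence increase over 60 s gives rate.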
RE007 growth inh: less growth of the S. pombe RE007 Vpr strain | Potency, µM (series often up to 92.2 µM), for inactives: at the highest dose activity change, negative = less growth | 360,000 tested, 0.21% active | S. pombe RE007 Vpr strain, BacTiter-Glo ATP luminescence, 24 h; control for the full effect not named in the record; active = well fitted falling curve with a large enough effect; inconclusive = small, poorly fitted or top-dose-only effect; inactive = no such curve, though single readings can be large or run the other way;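 also: % is scaled to controls: 0 for no effect and ±100 for the full control effect; nearly all actives have a fitted effect of over 50% in size; the assay follows cell death caused by Vpr and the record does not say whether a fall means rescue or toxicity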
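Fission yeast RE007 carrying one integrated HIV-1 vpr copy, seeded at OD 0.01 in PMG+AL medium with 23 nL pinned compound. Grown 24 h at 30 degrees; viability read by BacTiter-Glo luminescence after 5 min.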
MARV entry inh: Marburg virus entry inhibition | AID 540276 | 300,000 tested, 1.8% active | Marburg virus pseudotyped entry inhibition, cell reporter; control for the full effect not named in the record; about a third of the inactives were read at about 46 µM | Potency, µM (titrated, usually from 37.8 µM), without a hit: at the highest dose activity change, negative = inhibition, actives largely listed as inhibitors; active = well fitted inhibition curve with a large enough effect; inconclusive = small, poorly fitted or top-dose-only effect, or effect the other way; inactive = flat fitted curve, though single readings scatter; tested in HEK293 cells; about a fifth of its hits are not listed in these tables; also: % is scaled to controls: 0 for no effect and ±100 for the full control effect; luciferase read-out
SARS PLP yeast: SARS-CoV PLP inhibition in yeast; AID 485353; 330,000 tested, 0.19% active; Potency, µM (series often up to 32.9 µM), without a hit: at the top dose activity, positive = growth rescue; S. cerevisiae expressing SARS-CoV PLpro, growth rescue; control for the full effect not named in the record; active means well fitted rising curve with a large enough effect; inconclusive means small, poorly fitted or top-dose-only effect; inactive means no such curve, though single readings can be large or run the other way; also: 0% is about no effect; nearly all actives have a fitted effect of over 55% in size; growth read by luminescence after 48 h
NS1 function inh: blocks influenza NS1 protein function; S. cerevisiae slowed by influenza A NS1, growth recovery by OD600; Potency, µM (highest dose often 46.1 µM), inactives show at the highest dose activity, positive = more growth; 270,000 tested, 0.4% active; AID 2326; active means well fitted rising curve with a large enough effect; inconclusive means small, poorly fitted or top-dose-only effect; inactive means no such curve, though single readings can be large or run the other way; also: nearly all actives have a fitted effect of over 50% in size
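Compounds were scored for reversing the slow growth caused by influenza A NS1 in S. cerevisiae, measured by optical density at 600 nm. Assay medium contained 2% galactose at pH 6.0; NS1-free yeast of the same strain were the positive control.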
StopGo reporter: FMDV 2A StopGo reporter, luciferase signal; human cells with a luciferase reporter of 2A StopGo recoding; control for the full effect not named in the record; Potency, µM (series often up to 57.9 µM), without a hit: top-dose signal change, negative = less light; 410,000 tested, 1.2% active; active = well fitted falling curve with a large enough effect; inconclusive = small, poorly fitted or top-dose-only effect; inactive = no such curve, though single readings can be large or run the other way; tested in HEK293T cells; also: % is scaled to controls: 0 for no effect and ±100 for the full control effect; nearly all actives have a fitted effect of over 45% in size; luciferase light after 4 h
Lassa entry inh: Lassa virus entry inhibition. Lassa virus pseudotype entry inhibition, cell reporter; control for the full effect not named in the record. Potency, µM (highest dose often 37.9 µM), inactives show at the top dose activity change, negative = inhibition, usual class: inhibitors. 300,000 tested, 1.2% active; active means well fitted inhibition curve with a large enough effect; inconclusive means small, poorly fitted or top-dose-only effect, or effect the other way; inactive means flat fitted curve, though single readings scatter; tested in HEK293 cells; also: % is scaled to controls: 0 for no effect and ±100 for the full control effect; nearly all actives have a fitted effect of over 50% in size; luciferase read-out
Cruzain Triton: inhibitors of Trypanosoma cruzi cruzain with detergent; Potency, µM, for inactives: max response, negative = inhibition, hits mostly inhibitors; purified cruzain, Z-FR-AMC fluorescence, 0.01% Triton; 200,000 tested, 0.43% active; AID 1478; P25779;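 also: plate controls were neutral wells for no effect and buffer without enzyme for full effect; nearly all actives have a fitted effect of over 40% in size; top concentration of the series not given in the record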
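Read-out: AMC fluorescence (360 nm excitation, 450 nm emission), four reads over 2 min, first-to-third difference used. Conditions: cruzain 1.5 nM, Z-FR-AMC 2 uM, pH 5.5 acetate, 5 mM DTT, 0.01% Triton X-100.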
Numbers without * were called inactive; u = inconclusive; x = no result given; & = joins results of further samples; [ ] = dose if it differs, or a comment. Unless noted, calls follow the shape of the dose curve; as a rule, active = well fitted curve in the direction sought with a large enough effect; inconclusive = small, poorly fitted or top-dose-only effect, or another doubt; inactive = no such curve, though single readings can be large; an effect the other way counts as inactive or inconclusive. Potency is read from the fitted curve at half-maximal effect.

SMILES	Cruzain noTriton	RE007 growth inh	MARV entry inh	SARS PLP yeast	NS1 function inh	StopGo reporter	Lassa entry inh	Cruzain Triton
Cc1nc2ccccn2c(=O)c1NC(=O)c1cccc(F)c1	-27%	x	x	x	x	-1%	-6%[46.1 µM]	-2.1%
COc1cccc(-c2nc(CS(=O)(=O)CC(=O)NC3CCCCCC3)c(C)o2)c1	x	-5%	x	5%	u	-18%	x	x
Cc1ccc2[nH]cc(CCNC(=O)CN3C(=O)c4ccccc4C3=O)c2c1	3%	-5%	10%	-10%	17%	-8%	0%	-6.3%
Cc1cccc(Cn2c(=O)n(-c3cc(C)cc(C)c3)c(=O)c3oc4ccccc4c32)c1	15%	x	x	x	x	-18%	1%[46.1 µM]	0.2%
O=C(NC(Cc1c[nH]c2ccccc12)C(=O)N/N=C/c1ccc(Cl)cc1)c1cccs1 (stereo not drawn)	x	17%	u	0%	u	-25%	u	x
COc1ccccc1C(=O)NCCC(=O)N1CCN(S(=O)(=O)c2ccccc2C(F)(F)F)CC1	x	0%	-6%	-1%	x	-16%	-17%	x
Cc1cc(C)c2c(n1)sc1c(O)cc(=O)[nH]c12	-24%	7%	0%	3%	u	35%[activator]	4%	-5.8%
CCOc1ccc(S(=O)(=O)n2nc(C)c(S(=O)(=O)N3CCCCC3)c2C)cc1	0%	x	x	x	x	17%	-6%[46.1 µM]	0.0%
CCCCNc1ccc(-c2nc(-c3ccco3)no2)cc1[N+](=O)[O-]	u	x	1%[46.1 µM]	x	x	0%	3%[46.1 µM]	-15%
Cc1ccc(Nc2ccc(C(=O)O)cc2[N+](=O)[O-])cc1	x	79%	u	-5%	-93%	6%	u	x
O=C(CSc1nncn1-c1cccnc1)Nc1ccccc1C(F)(F)F	x	-10%	5%[46.1 µM]	6%	6%	6%	10%[46.1 µM]	x
Cc1ccc2nc(SC(C)C(=O)NC3CCCC3)[nH]c2c1 (stereo not drawn)	x	4%	u	-6%	x	-13%	0%[46.1 µM]	x
COc1cc(NS(=O)(=O)c2ccc(C)cc2)c2ncccc2c1	5%	-4%	u	-22%	-28%	u	u	2.7%
CCOc1ccccc1-c1nc(C(N)=O)c2[nH]c(=O)n(-c3cccc(C)c3)c2n1	u	-5%	u	-2%	-10%	-26%	u	-7.2%
O=C(c1ccc2c3c(cccc13)CC2)N1CCN(c2ncccn2)CC1	x	-7%	-21%	x	-3%	-11%	0%	x
Cc1ccccc1-n1c(=O)c2c3c(sc2n2cnnc12)CCCC3	-3%	x	0%[46.1 µM]	x	x	-23%	-5%[46.1 µM]	-2.3%
O=c1c2[nH]cnc2n(-c2cccc(Br)c2)c(=O)n1Cc1ccccc1	x	2%	x	0%	1%	-16%	x	x
CC1CCN(S(=O)(=O)c2ccc3c(c2)N(CC(=O)NC(C)c2ccccc2)C(=O)CO3)CC1 (stereo not drawn)	20%	x	-29%[46.1 µM]	x	x	-8%	-1%[46.1 µM]	-2.0%
Cn1c(=O)c2c(ncn2CC(=O)OCC(=O)NC2CCCc3ccccc32)n(C)c1=O (stereo not drawn)	-8%	10%	34%&34%	6%	6%	-1%	-3%	-2.5%
COc1ccc(NC(=O)COC(=O)c2cc(Cl)ccc2O)cc1S(=O)(=O)N1CCCCC1	x	3%	0%	2%	x	u	-3%	x
CN1CCc2c(sc(NC(=O)c3ccc(S(=O)(=O)N4CCCCCC4)cc3)c2C(N)=O)C1	x	-2%	u	0%	-9%	u	u	x
COc1ccccc1CC(=O)N1CCN(c2cccc(C(F)(F)F)c2)CC1	u	-12%	u	2%	-50%	x	u	-6.8%
CC(C)OC(=O)CC(=O)CSc1nc(-c2ccc(F)cc2)cc(-c2ccccc2)c1C#N	-6%	-14%	u	12%	19%	-5%	u	-4.6%
CCOc1nc(C)ccc1-c1noc(CC)n1	4%	-6%	20%	20%	-14%	21%	0%	-3.1%
Cc1cccc(Cn2cc(SCC(=O)Nc3nccs3)c3ccccc32)c1	u	0%	x	-6%	-3%	16%	x	-6.4%
Cc1ccc(C)c(OCC(=O)Nc2ccccc2N2CCCC2)c1	x	-4%	u	-4%	-13%	-18%	4%[46.1 µM]	x
COc1ccc(-n2nnnc2/C=C\Nc2ccccc2C(=O)c2ccccc2)cc1	u	0%	-15%	5%	13%	2%	u	0.1%
COc1ccccc1NC(=O)CCN1CCN(CCC(=O)Nc2ccccc2OC)CC1	-8%	x	0%	2%	0%	x	x	4.8%
Cc1ccc(N/C(N)=N/c2nc(C)cc(C)n2)cc1	-2%	-15%	-35%	12%	1%	0%	12%	-3.1%
O=C(NCCc1ccc(Cl)cc1)c1ccc(CS(=O)Cc2ccc(Cl)cc2)o1 (stereo not drawn)	x	0%	u	0%	19%	-29%	u	x

The last two entries of the section before are carried over, then new ones follow:
SMILES	Cruzain noTriton	RE007 growth inh	MARV entry inh	SARS PLP yeast	NS1 function inh	StopGo reporter	Lassa entry inh	Cruzain Triton
Cc1ccc(N/C(N)=N/c2nc(C)cc(C)n2)cc1	-2%	-15%	-35%	12%	1%	0%	12%	-3.1%
O=C(NCCc1ccc(Cl)cc1)c1ccc(CS(=O)Cc2ccc(Cl)cc2)o1 (stereo not drawn)	x	0%	u	0%	19%	-29%	u	x
Cn1c(=O)c2c(ncn2CC(=O)N2CCN(c3ccccc3)CC2)n(C)c1=O	-1%	-12%	10%	1%	0%[9.22 µM]	-13%	10%	1.1%
COc1ccc(/C(C)=N/NC(=O)c2ccncc2)cc1	x	1%	x	-7%	-6%	18%	x	x
CCn1cc(S(=O)(=O)c2ccc(C)cc2)[nH]c1=O	x	5%	14%[46.1 µM]	-1%	0%	-9%	-9%	x
Oc1c(/C=C/C=C/C=Nc2ccccc2)sc(=S)n1Cc1ccccc1	x	-1%	x	-2%	12%	-4%	x	x
O=C(NCC1CCCCC1)c1cccc(S(=O)(=O)NCc2cccnc2)c1	x	-10%	-3%	-4%	1%	2%	-13%	x
O=C(NCc1ccccc1)NC1COc2ccccc2C1 (stereo not drawn)	-9%	x	x	x	x	26%	-18%[46.1 µM]	2.9%
Cc1ccc(CNC(=O)CN(c2cccc(C)c2C)S(=O)(=O)c2ccccc2)cc1	-13%	x	-30%[46.1 µM]	x	x	-16%	u	-5.6%
CCOC(=O)C(=CNc1nc(-c2ccc3ccccc3c2)cs1)C(=O)OCC	x	-22%	u	-1%	-3%	3%	u	x
CNC(=O)CC1C(=O)N(C)C(=S)N1NC(=O)c1ccc(Cl)cc1 (stereo not drawn)	0%	0%	9%[46.1 µM]	u	12%	-20%	18%	-0.3%
COCCCNC(=O)c1ccc2c(c1)ncn2-c1ccccc1OC	-16%	-1%	-2%	-6%	-10%	-12%	-30%	0.2%
N/C(=N\OS(=O)(=O)c1ccc(Cl)cc1)c1ccncc1	-32%	8%	u	-7%	2%	x	-30%	-8.8%
CCC1Oc2ccc(C)cc2N(CC(=O)N(Cc2cccnc2)Cc2cccc(F)c2)C1=O (stereo not drawn)	u	16%	u	3%	-4%	-5%	u	-3.6%
CCn1ccnc1CN1CCCCC1C(=O)Nc1ccc(Oc2cccnc2)cc1 (stereo not drawn)	x	-11%	u	7%	2%	-6%	-1%	x
CCc1nc2c(cnn2-c2ccc(Cl)cc2)c(=O)n1-c1ccc(OC)c(Cl)c1	4%	x	-2%[46.1 µM]	x	x	-3%	2%[46.1 µM]	-1.4%
CCCn1c(=N)n(CC(O)c2ccco2)c2ccccc21 (stereo not drawn)	3%	3%	u	0%	-1%	-1%	-1%	1.6%
CCOc1ccc(Cl)cc1S(=O)(=O)N1CCC(C(=O)N2CCCC2)CC1	x	3%	17%	20%	-8%	-4%	2%	x
C=CCN(C(=O)CNC(=O)c1ccco1)C(C(=O)NC1CCCCC1)c1ccc(F)cc1 (stereo not drawn)	5%	-3%	3%&-23%	-1%	7%	-10%	u	2.4%
COc1ccc(CNCc2cccc(Cl)c2)cc1	u	-11%	13%	-1%	6%	6%	16%	3.1%
CCOC(=O)c1c(C)n(Cc2ccccc2)c2ccc(OCC(O)CNC(C)(C)C)cc12 (stereo not drawn)	x	3%	u	7%	4%	-23%	-1%[46.1 µM]	x
Cc1ccc(-c2nnc(Nc3ccc(CC(N)=O)cc3)c3ccccc23)cc1	-1%	8%	-12%	3%	-5%	u	u	-3.9%
CCCCN1CCNC1=S	x	1%	u	0%	2%	0%	2%[46.1 µM]	x
CCCCNC(=O)CCCn1c(=O)c2ccccc2n(CC(=O)NCCC2=CCCCC2)c1=O	4%	6%	u	1%	14%	-18%	-8%	3.5%
COC(=O)c1ccc(COc2cccc3c2OC(C)(C)C3)cc1	x	-3%	-9%	-1%	-16%	u	1%	x
CC(C)Sc1nc2c(c(=O)[nH]c(=O)n2C)n1C	-2%	0%	-12%	2%	-51%	-3%	3%	4.8%
CCn1ccnc1C(O)c1cccc(OC)c1OC (stereo not drawn)	-7%	-1%	x	6%	-2%	-19%	x	-2.7%
O=C(/C=C/c1ccc(-c2ccccc2)cc1)NCc1cccnc1	x	11%	u	-1%	-21%	32%[activator]	0%[46.1 µM]	x

Of the compounds above, five have an aryl thioether with sulfur outside any ring:
SMILES	Cruzain noTriton	RE007 growth inh	MARV entry inh	SARS PLP yeast	NS1 function inh	StopGo reporter	Lassa entry inh	Cruzain Triton
O=C(CSc1nncn1-c1cccnc1)Nc1ccccc1C(F)(F)F	x	-10%	5%[46.1 µM]	6%	6%	6%	10%[46.1 µM]	x
Cc1ccc2nc(SC(C)C(=O)NC3CCCC3)[nH]c2c1 (stereo not drawn)	x	4%	u	-6%	x	-13%	0%[46.1 µM]	x
CC(C)OC(=O)CC(=O)CSc1nc(-c2ccc(F)cc2)cc(-c2ccccc2)c1C#N	-6%	-14%	u	12%	19%	-5%	u	-4.6%
Cc1cccc(Cn2cc(SCC(=O)Nc3nccs3)c3ccccc32)c1	u	0%	x	-6%	-3%	16%	x	-6.4%
CC(C)Sc1nc2c(c(=O)[nH]c(=O)n2C)n1C	-2%	0%	-12%	2%	-51%	-3%	3%	4.8%
